Screening data: PubChem, Broad Institute
STK33 kin inh: STK33 kinase inhibitors, primary screen, biochemical, luminescence, ADP-Glo, MBP substrate. inhibition, % at 12.5 µM. Serine/threonine-protein kinase 33 (Homo sapiens), Q9BYT3. 27,000 compounds, 0.44% hits; in the data active = inhibition above about 20%; inconclusive = no clear call, values can overlap the other calls
Target sequence (Q9BYT3 whole entry, looked up): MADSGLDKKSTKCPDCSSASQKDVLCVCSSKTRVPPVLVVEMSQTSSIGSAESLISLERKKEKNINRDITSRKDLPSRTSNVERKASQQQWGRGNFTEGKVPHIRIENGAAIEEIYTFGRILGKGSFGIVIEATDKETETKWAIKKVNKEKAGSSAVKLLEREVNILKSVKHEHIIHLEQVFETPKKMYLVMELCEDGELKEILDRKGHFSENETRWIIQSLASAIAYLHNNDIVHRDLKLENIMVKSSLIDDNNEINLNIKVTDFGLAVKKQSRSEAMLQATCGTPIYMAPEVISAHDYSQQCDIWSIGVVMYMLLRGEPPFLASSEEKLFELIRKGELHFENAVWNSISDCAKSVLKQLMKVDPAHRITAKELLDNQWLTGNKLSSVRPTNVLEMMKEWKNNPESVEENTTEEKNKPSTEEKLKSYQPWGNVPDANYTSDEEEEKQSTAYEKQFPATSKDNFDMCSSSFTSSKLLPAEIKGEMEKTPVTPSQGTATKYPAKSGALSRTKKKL
Starred values were filed as active, the others as inactive; u = inconclusive. Some of the compounds tested, and most or all hits are left out here.

SMILES	STK33 kin inh
C[C@]12CCC(=O)C=C1CCC1C2[C@@H](O)C[C@@]2(C)C1CC[C@]2(O)C(=O)CO (stereo partly drawn)	0
CN=C(NC#N)NCCSCc1nc[nH]c1C	-1
CC(=O)OCC(=O)[C@H]1CCC2C3CCC4=CC(=O)CC[C@]4(C)C3CC[C@@]21C (stereo partly drawn)	1
CN/C(=C/[N+](=O)[O-])NCCSCc1ccc(CN(C)C)o1	-2
Cc1c(N(C)C)c(=O)n(-c2ccccc2)n1C	1
C[C@@H]1C[C@H]2[C@@H]3C[C@H](F)C4=CC(=O)C=C[C@]4(C)[C@@]3(F)[C@@H](O)C[C@]2(C)[C@@]1(O)C(=O)CO	-4
CC(=O)OCC(=O)[C@@]12OC(C)(C)O[C@@H]1CC1C3C[C@H](F)C4=CC(=O)C=C[C@]4(C)[C@@]3(F)[C@@H](O)C[C@@]12C (stereo partly drawn)	-6
S=c1[nH]c2ccccc2s1	u
C#C[C@]1(O)CCC2C3CCC4=Cc5oncc5C[C@]4(C)C3CC[C@@]21C (stereo partly drawn)	3
CC(C)NCC(O)COc1cccc2ccccc12 (stereo not drawn)	0
CCC(=O)OCC(=O)[C@@]1(OC(=O)CC)[C@@H](C)C[C@H]2[C@@H]3CCC4=CC(=O)C=C[C@]4(C)[C@@]3(Cl)[C@@H](O)C[C@@]21C	0
CC1(C)O[C@@H]2CC3C4C[C@H](F)C5=CC(=O)C=CC5(C)C4C(O)CC3(C)[C@]2(C(=O)CO)O1 (stereo partly drawn)	5
O=C(O)CCc1nc(-c2ccccc2)c(-c2ccccc2)o1	-7
Cn1c(=O)c2c(ncn2C)n(C)c1=O	-1

Some of the entries so far, with bars between the fields.
compound | STK33 kin inh
S=c1[nH]c2ccccc2s1 | u
C#C[C@]1(O)CCC2C3CCC4=Cc5oncc5C[C@]4(C)C3CC[C@@]21C (stereo partly drawn) | 3
CC(C)NCC(O)COc1cccc2ccccc12 (stereo not drawn) | 0
CCC(=O)OCC(=O)[C@@]1(OC(=O)CC)[C@@H](C)C[C@H]2[C@@H]3CCC4=CC(=O)C=C[C@]4(C)[C@@]3(Cl)[C@@H](O)C[C@@]21C | 0
CC1(C)O[C@@H]2CC3C4C[C@H](F)C5=CC(=O)C=CC5(C)C4C(O)CC3(C)[C@]2(C(=O)CO)O1 (stereo partly drawn) | 5
O=C(O)CCc1nc(-c2ccccc2)c(-c2ccccc2)o1 | -7
Cn1c(=O)c2c(ncn2C)n(C)c1=O | -1
